Screening results as filed in PubChem BioAssay.
GALR2 ag – GALR2 (human) receptor agonism. 0.48% of 140,000 active. GALR2-expressing cells, agonist activation read-out. O43603. activation, %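 (tested at 5 µM)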;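 active = above mean plus 3 SD of all compounds, about 5% in these data, not always enough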;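 note: 0% = vehicle buffer wells and 100% = reference agonist at full effect; tested in CHO reporter cells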
Target sequence (O43603 whole entry, looked up): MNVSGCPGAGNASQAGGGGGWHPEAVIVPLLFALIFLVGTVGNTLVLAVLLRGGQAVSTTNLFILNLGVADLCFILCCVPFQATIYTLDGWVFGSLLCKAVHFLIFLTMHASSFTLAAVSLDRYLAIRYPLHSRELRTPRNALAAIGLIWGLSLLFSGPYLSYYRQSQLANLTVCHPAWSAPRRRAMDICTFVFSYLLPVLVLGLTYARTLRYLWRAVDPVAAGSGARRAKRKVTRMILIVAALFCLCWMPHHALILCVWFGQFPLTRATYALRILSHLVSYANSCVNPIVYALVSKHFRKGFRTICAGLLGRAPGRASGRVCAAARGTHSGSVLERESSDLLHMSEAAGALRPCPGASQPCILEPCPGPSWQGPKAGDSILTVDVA
INS promoter inh – TRM-6 insulin promoter activity inhibition | 0.9% of 130,000 active | inhibition, % at 2 µM | AID 1273 | TRM-6 cells (human fetal islet line), insulin promoter-eGFP reporter, imaging; reporter expression induced with tamoxifen;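 active = inhibition above the mean plus 3 SD, with well images judged a real hit on visual review, cut at about 60% in these data, passing the limit was not always enough; inconclusive = inhibition over the cutoff but images rejected on review; inactive = inhibition not above the cutoff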
HSV augment – increases HSV replication in cells; HSV replication augmentation in cells, fold increase; maximum fold increase; 0.005% of 220,000 active; AID 1956;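 active = peak rise of 1.5-fold or more in the series; inconclusive = self-fluorescent or not available for retest; tested in PC3 cells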;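 note: first round at 10 µM; read as green reporter fluorescence; hits show the peak of a series up to 25 µM; 1 = signal of infected wells without compound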
PKD1 inh – blocks activity of human protein kinase D1; PKD1 kinase fluorescence polarization assay; inhibition, %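 (about 10 µM by stock and volumes)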; 0.056% of 200,000 active; AID 797;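 active = inhibition of 50% or more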;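 note: controls were vehicle for no effect and a reference inhibitor for full effect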
RGS16-Gao HTS – modulates binding between human RGS16 and Galphao; binding response (% of control), % at 10 µM; bead-based flow cytometry RGS16-Galphao binding, fluorescence; actives lie on both sides; 0.38% of 220,000 active; O15492+P09471;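 active = below 25% or above 175%, edge rows of some plates excepted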;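 note: Galphao activated by GDP with aluminum fluoride before binding; 100% = wells without compound and 0% = beads without RGS; some results beyond the cut were filed as inactive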
Target sequence (O15492 whole entry, looked up): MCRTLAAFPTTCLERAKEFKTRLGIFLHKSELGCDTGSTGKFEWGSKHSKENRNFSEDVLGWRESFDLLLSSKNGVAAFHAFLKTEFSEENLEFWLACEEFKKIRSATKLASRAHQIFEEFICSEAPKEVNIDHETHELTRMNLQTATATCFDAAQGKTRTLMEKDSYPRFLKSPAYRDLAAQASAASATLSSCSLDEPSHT
Target sequence (P09471 whole entry, looked up): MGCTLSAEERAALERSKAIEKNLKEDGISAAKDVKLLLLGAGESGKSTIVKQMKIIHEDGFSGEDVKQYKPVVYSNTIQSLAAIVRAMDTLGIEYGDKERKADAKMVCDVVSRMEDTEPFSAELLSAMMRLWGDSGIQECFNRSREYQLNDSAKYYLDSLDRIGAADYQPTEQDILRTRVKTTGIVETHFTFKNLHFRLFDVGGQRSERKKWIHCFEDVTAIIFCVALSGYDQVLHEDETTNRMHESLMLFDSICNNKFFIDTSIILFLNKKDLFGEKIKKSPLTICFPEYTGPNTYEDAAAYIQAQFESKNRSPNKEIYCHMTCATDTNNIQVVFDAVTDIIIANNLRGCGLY
INS promoter inh cell count – recorded beside INS promoter inh, whose call it bears; normalized cell count, %; measured here: cell count, toxicity; reference of the scale not given here;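 cells exposed to compound for 48 h; stained nuclei by imaging scaled within each plate; lower means fewer cells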
HSV augment primary fold – second read-out of HSV augment, no call of its own (marks repeat the call); fold increase; compound at 10 µM; measured here: primary screen fold increase 10 uM; tested in PC3 cells;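 GFP signal in the first replicate; 1 = infected wells without compound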
* = called active by the depositor; i = inactive; u = inconclusive; x = no result given. The order is random (roughly 1.2% active in at least one column).

SMILES	GALR2 ag	INS promoter inh	INS promoter inh cell count	HSV augment	HSV augment primary fold	PKD1 inh	RGS16-Gao HTS
COc1ccc(OC)c(C(O)c2coc3ccc(O)c(CN4CCOCC4)c23)c1 (stereo not drawn)	0.4	42	81	i	0.81	-6	106
Cc1ccc(NCc2nnc(SCC(=O)NNC(=O)Cc3ccccc3)n2C)cc1	x	x	x	i	0.94	x	90
Cc1nnc(NC(=O)CSc2nnc(CNC(=O)C34CC5CC(CC(C5)C3)C4)n2C2CCCCC2)s1	-4.6	x	x	i	1	11	104
CCC(CC)C(=O)Nc1cc(OC)c(OC)cc1C(=O)O	-1.9	-234	45	i	1	4	104
Cc1c(C#N)c(NC(=O)CCl)n(Cc2cccs2)c1C	x	x	x	i	1.2	-4	97
COc1cc(NS(C)(=O)=O)c(OC)cc1NC(=O)c1cccc(F)c1	-1.0	x	x	i	0.53	39	96
O=C(OCn1nnc2ccccc2c1=O)c1ccc(N2CCOCC2)c([N+](=O)[O-])c1	0.7	27	121	i	0.87	0	102
CCOc1ccc(C(C)=O)cc1CSc1nc2nc(C)cc(C)n2n1	x	x	x	i	1	10	100
Cc1sc2nc(CSc3cccc(C(F)(F)F)c3)[nH]c(=O)c2c1C	1.1	x	x	i	0.89	-3	101
O=C(O)CC1S/C(=N/N=C/c2ccc(Br)cc2)N(c2ccccc2)C1=O (stereo not drawn)	x	x	x	i	1.1	4	105
Cc1cccc(OCc2nc(-c3nonc3N)no2)c1C	-1.4	x	x	i	0.76	1	101
Cn1cccc1/C=N\NC(=O)c1cncc(Br)c1	x	x	x	i	0.66	x	103
CC(OC(=O)C1=Cc2ccccc2OC1)C(=O)NC(C)(C)C (stereo not drawn)	x	x	x	i	1.1	-2	114
COc1ccc(NC(=O)CN2CCC(C)CC2)c([N+](=O)[O-])c1	-2.9	38	72	i	0.99	1	106
COc1cccc(CNc2nc3ccccc3n2CCN2CCCCC2)c1OC	-0.8	-17	169	i	0.96	1	92
CN(C)c1ccc(C(=S)N2CCN(Cc3ccccc3)CC2)cc1	x	x	x	i	1.1	-5	75
CCc1ccc(CN(C)C(=O)CC2C(=O)NCCN2Cc2ccoc2)cc1 (stereo not drawn)	x	x	x	i	1	3	107
COc1ccc(NC(=O)Nc2ccccc2C(N)=O)cc1OC	-0.7	39	80	i	0.83	-4	89
O=C(Nc1ccc2snnc2c1)N1CCN(c2ccccc2)CC1	0.8	20	131	i	1.1	1	115
O=C(Nc1ccccc1)/C(=C/c1cccnc1)NC(=O)c1ccco1	0.1	33	80	i	1	7	99
O=C(NCCc1ccc2c(c1)OCCO2)c1cc2ccccc2o1	-0.4	x	x	i	0.91	-7	98
CCNC(=S)NNC(=O)c1ccc2ncccc2c1	x	31	57	i	0.73	-5	105
COc1ccc(-n2c(/C=C(\C)O)nc(=O)c3c(C)cc(C)nc32)cc1	-1.9	-91	159	i	0.91	-5	131
O=C(NCc1cccnc1)c1nn2cccnc2c1Cl	x	x	x	i	1.2	-9	101
NC(=O)C1CCN(c2cc(Cl)nc(N)n2)CC1	x	60	118	i	0.93	-9	96
COc1ccc(-c2[nH]n(-c3ccc([N+](=O)[O-])cc3)c(=O)c2C=NCc2ccccc2)cc1	0.0	0	164	i	1	-2	116
Cc1ccccc1Nc1nc2nonc2nc1N1CCOCC1	0.5	0	109	i	0.96	2	134
Cc1nc2ccccc2nc1N1CCOCC1	-3.1	35	108	i	0.76	-7	105
Cc1c(Br)c([N+](=O)[O-])nn1CC(=O)Nc1c(C)n(C)n(-c2ccccc2)c1=O	-0.2	14	103	i	1	2	132
O=C(CN1CCN(c2ccccc2)CC1)NC(=O)NCc1ccco1	-2.3	7	127	i	0.93	-12	100

Only GALR2 ag, RGS16-Gao HTS and PKD1 inh, for 2 of the compounds above:
canonical_smiles	GALR2 ag	RGS16-Gao HTS	PKD1 inh
COc1ccc(-c2[nH]n(-c3ccc([N+](=O)[O-])cc3)c(=O)c2C=NCc2ccccc2)cc1	0.0	116	-2
Cc1ccccc1Nc1nc2nonc2nc1N1CCOCC1	0.5	134	2

(continued)
SMILES	GALR2 ag	INS promoter inh	INS promoter inh cell count	HSV augment	HSV augment primary fold	PKD1 inh	RGS16-Gao HTS
O=C(Nc1nc2ccc(F)cc2s1)c1cccs1	x	-8	120	i	1	2	115
CCCn1nnc(NCc2ccc(OCc3cccs3)c(OC)c2)n1	-2.4	19	168	i	0.78	-7	100
Cc1ccc(-c2csc(N/N=C/C=C/c3ccccc3)n2)cc1	-0.9	19	18	i	0.76	-3	93
CCC(Oc1ccccc1)C(=O)Nc1ccccc1OC (stereo not drawn)	0.2	5	148	i	1.1	-3	103
Cc1ccnc(NS(=O)(=O)c2ccc(NC(=O)C3CC=CCC3C(=O)O)cc2)n1 (stereo not drawn)	x	-25	72	i	0.98	4	104
CC1=NN(C(=O)c2ccc(Cn3nc(C)c(Br)c3C)cc2)C(O)(C(F)(F)F)C1 (stereo not drawn)	-1.3	0	59	i	0.89	-2	117
N#CC1=C(N)Oc2nc(-c3ccccc3)[nH]c2C1c1cccnc1 (stereo not drawn)	-1.0	x	x	i	1.1	-2	100
CCN1CCN(CC(=O)Nc2c(C(=O)OC)[nH]c3cccc(Cl)c23)CC1	-0.7	79*	94*	i	0.96	0	104
COCCNC(=O)C(c1cccs1)N(Cc1ccccc1)C(=O)Cn1nnc2ccccc21 (stereo not drawn)	-0.2	29	78	i	1	-1	-213
CCCOc1ccc(C(=O)NC(=S)Nc2nc3ccc(C)cc3s2)cc1	-2.1	x	x	i	0.68	1	101
COc1cc(C(=O)NCc2nnc(SCC(=O)N3CCCc4ccccc43)o2)cc(OC)c1OC	x	-45	97	i	1	-5	119
O=C(Cc1ccc(Cl)cc1)Nc1cc(S(=O)(=O)N2CCOCC2)ccc1N1CCCC1	x	-138	85	i	0.89	-5	98
CC(C)(C)OC(=O)NCCC(=O)N/N=C/c1ccc2ncccc2c1	x	x	x	i	0.91	x	89
COc1ccc(C2CC(C(F)(F)F)n3nc(CO)c(Cl)c3N2)cc1OC (stereo not drawn)	-1.7	57	74	i	0.63	1	103
Cc1ccc(C(=O)CN2CCC(NC(=O)C3CCCCC3)CC2)cc1	-0.9	37	158	i	0.94	8	104
CCN(C(=O)CCC(=O)N(CC)c1ccccc1)c1ccccc1	-0.4	-42	99	i	0.95	14	39
COCCNc1oc(/C=C/c2ccccc2)nc1C#N	x	x	x	i	1	x	98
CC(=O)Nc1ccc(S(=O)(=O)NC2=NCN(CCOC(=O)c3ccccc3)CN2)cc1	-2.8	-38	125	i	0.96	6	106
Cc1c(Br)ccc(NC(=O)CCN2C(=O)C3C4CCC(C4)C3C2=O)c1C (stereo not drawn)	-0.8	3	92	i	0.87	11	104
O=C(CN(C(=O)CCC(=O)Nc1nccs1)c1ccc(F)c(Cl)c1)NCc1ccco1	-2.0	x	x	i	0.93	9	103
Nc1ncnc(Nc2cccc(C(F)(F)F)c2)n1	-0.9	44	116	i	0.94	-11	100
Nc1ccc(C(=O)N2CCCC2)cc1CS(=O)(=O)c1ccc(Cl)cc1	x	13	99	i	1	-1	99
COc1ccccc1NC(=O)Cc1noc(CSc2nnc(C)s2)n1	-2.3	x	x	i	1.1	-6	89
Cc1nn(Cc2c(F)c(F)c(F)c(F)c2F)c(C)c1NC(=O)c1ccc(COc2ccc(Cl)cc2Cl)o1	-1.2	33	134	i	0.78	-14	95
O=C(NC1CC1)c1ccc(COc2ccc(F)cc2)o1	-2.2	x	x	i	0.97	-12	100
CC(C)Sc1nnc(Cn2c(=O)sc3ccccc32)n1-c1ccccc1	-0.5	x	x	i	1.3	-14	103
OCCCN=C1CCCc2c1[nH]c1ccc(Cl)cc21	x	x	x	i	0.95	x	105
NC(=O)CSc1ncnc2c1nnn2Cc1ccc(F)cc1	x	-6	95	i	0.89	-4	103
O=C1CCCCC/C1=N/Nc1ccc(OCc2ccccc2)cc1	x	x	x	i	0.93	x	109
CCOC(=O)N1CCN(C(c2cccnc2)c2ccc3cccnc3c2O)CC1 (stereo not drawn)	-1.0	-38	118	u	x	7	85

A draw from above in order of formula weight, smallest number first:
SMILES	GALR2 ag	INS promoter inh	INS promoter inh cell count	HSV augment	HSV augment primary fold	PKD1 inh	RGS16-Gao HTS
CCC(Oc1ccccc1)C(=O)Nc1ccccc1OC (stereo not drawn)	0.2	5	148	i	1.1	-3	103
COc1ccc(OC)c(C(O)c2coc3ccc(O)c(CN4CCOCC4)c23)c1 (stereo not drawn)	0.4	42	81	i	0.81	-6	106
CC(=O)Nc1ccc(S(=O)(=O)NC2=NCN(CCOC(=O)c3ccccc3)CN2)cc1	-2.8	-38	125	i	0.96	6	106
COc1cc(C(=O)NCc2nnc(SCC(=O)N3CCCc4ccccc43)o2)cc(OC)c1OC	x	-45	97	i	1	-5	119

Back to the main list; the two compounds before the break are reprinted first.
SMILES	GALR2 ag	INS promoter inh	INS promoter inh cell count	HSV augment	HSV augment primary fold	PKD1 inh	RGS16-Gao HTS
O=C1CCCCC/C1=N/Nc1ccc(OCc2ccccc2)cc1	x	x	x	i	0.93	x	109
CCOC(=O)N1CCN(C(c2cccnc2)c2ccc3cccnc3c2O)CC1 (stereo not drawn)	-1.0	-38	118	u	x	7	85
CCCc1nc2oc3c(OCC)ncnc3c2c2c1COC(C)(C)C2	-0.3	4	97	i	1.1	1	105
COCCn1c(SCC(=O)Nc2nnc(C)s2)nnc1-c1ccncc1	0.2	18	189	i	0.79	0	x
CC1Cc2ccccc2N1C(=O)COC(=O)Cn1nnc(-c2ccccc2)n1 (stereo not drawn)	0.4	18	102	i	0.98	-9	106
Cc1ccccc1NC(=O)C1CCN(S(=O)(=O)c2cccs2)CC1	x	7	104	i	0.96	9	99
O=C(COc1ccccc1Br)NCc1ccccn1	-0.8	0	126	i	0.79	2	100
O=Cc1ccc(OC(=O)c2cccnc2)cc1	x	x	x	i	1	-4	93
CN1CCc2c(sc3c2c(=O)n(-c2cccc(Cl)c2)c2nncn32)C1	-2.9	32	187	i	0.87	-1	x
C=CCOc1c2ccc(C(=O)NC3CCCc4ccccc43)cc2nn1C (stereo not drawn)	-0.7	x	x	i	0.83	-6	103
CC(/C=C\C=C\c1ccccc1)=N\NC(=O)c1cncc(Br)c1	x	x	x	i	0.96	1	99
Cc1ccc(CN2CCN(Cc3cn(C)nc3C)CC2CCO)o1 (stereo not drawn)	x	26	108	i	0.96	2	107
Cc1ccc(-c2onc3ccc(C=O)cc23)cc1	-2.0	38	58	i	1	-1	103
O=C(CNC(=O)c1ccccc1Br)N/N=C/c1cc(Br)ccc1O	x	29	130	x	x	-8	97
Nc1ncnc2c1ncn2CCOc1ccccc1	-2.9	21	172	i	0.85	-8	95
COc1ccc(NC(=O)C2CCCN(c3nccc(C)n3)C2)cc1 (stereo not drawn)	x	x	x	i	0.98	0	99
COc1ccccc1-n1cc(CN2CCN(CC(C)C)C(CCO)C2)cn1 (stereo not drawn)	x	x	x	i	1	-1	109
COc1ccc(CN(CCC(c2ccco2)C(C)C)C(C)=O)cc1OC (stereo not drawn)	x	x	x	i	0.92	x	108
O=C(CSc1nc(-c2ccco2)cc(C(F)(F)F)n1)NCC1CCCO1 (stereo not drawn)	-0.9	-2	129	i	1.1	-8	102
O=C(CSc1nnnn1-c1ccc2c(c1)CCC2)NCc1cccs1	0.1	-7	51	i	0.72	1	94
CC1CCCCN1CCNC(=O)c1cc2c(=O)n(C)c3ccccc3c2n1C (stereo not drawn)	-2.5	x	x	i	0.99	7	111
COC(=O)CC/C(O)=C1\C(=O)CC(C)(C)CC1=NCCc1nc2ccccc2[nH]1	x	-14	77	i	1.1	-1	99
O=c1c2ccccc2nc2c3ccccc3c3nncn3n12	-0.7	x	x	i	0.8	-12	99
O=C(C1CC1)N1CCc2cc(S(=O)(=O)NCCC3=CCCCC3)ccc21	2.4	-38	104	i	0.89	-11	97
O=C(c1ccco1)N1CCC(N2CCN(c3ccccc3)CC2)CC1	x	x	x	i	1	x	98
CC(C)OC(=O)CN1C(=O)C(C)(C)Oc2ccc(C(=O)NC(C)(C)C)cc21	0.2	x	x	i	0.92	4	103
C#CCOC(=O)c1ccccc1C(=O)n1nnc2ccccc21	-2.4	x	x	i	1.2	-10	97
O=C(Nc1ccccc1)OCc1ccccn1	-1.0	x	x	i	0.96	-1	102
CC1Cc2cc(C(=O)O)ccc2O1 (stereo not drawn)	-3.5	x	x	i	0.97	-3	90
O=C(Oc1ccc(=O)n(-c2ccccc2)n1)c1ccc(F)cc1	x	38	106	i	1	3	103
Cc1cccc(/C=N/NC(=O)c2ccc(Br)cc2)c1	-1.4	x	x	i	0.97	-2	52
COc1ccc(-n2[nH]c(C)cc2=O)cc1	-0.6	x	x	i	0.97	4	95
COc1cc(S(=O)(=O)n2ccnc2)ccc1Br	x	15	124	i	0.91	-3	100
Cc1c(C(=O)O)sc(S(=O)(=O)N2CCNCC2)c1C(=O)O	x	x	x	i	1.2	x	98
